# FGF22 binding – shifts melting point of recombinant human FGF22. Q9HCT0. calls only at 9.99 µM. recombinant FGF22 thermal shift, SYPRO orange fluorescence; percent of sucrose octasulfate shift, DMSO zero. actives 1.5% (n = 340,000);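 active means melting point raised past a set limit in the mean and every replicate; three in four hits are not shown here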
# Target sequence (Q9HCT0 whole entry, looked up): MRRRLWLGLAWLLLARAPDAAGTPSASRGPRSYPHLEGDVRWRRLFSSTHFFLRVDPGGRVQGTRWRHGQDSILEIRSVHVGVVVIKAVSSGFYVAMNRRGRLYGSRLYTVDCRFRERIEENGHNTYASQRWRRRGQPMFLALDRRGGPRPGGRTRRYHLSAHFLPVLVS
# HNF4A DNA FP – change in binding of human HNF4 alpha to DNA; activity change, % at 10 µM; actives 0.3% (n = 360,000); HNF4a-FITC DNA binding, fluorescence polarization, 1 h; P41235; in the data active means activity change above about 30%, passing the limit was not always enough;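 further: controls were the assay level and a saturating level of protein; the project sought stronger binding though the title names inhibitors; some compounds called inactive have numbers as strong as hits; positive values seem to mean higher polarization but the record does not say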
# Vif TR-FRET – HIV-1 Vif–A3G interaction blockers – biochemical, TR-FRET, GST-Vif 1-94, biotin-A3G peptide, dose response retest, primary screen (AID 1117319) | TR-FRET GST-Vif / biotin-A3G peptide binding; higher % means a stronger effect; test concentration not given here; strong numbers were not always called active | actives 0.57% (n = 260,000) | one-dose inhibition, %; IC50 in µM for titrated hits;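 active means above the screen mean plus three standard deviations and confirmed in dose response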;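 further: Vif residues 1-94 fused to GST binding biotinylated APOBEC3G peptide 110-148; 0% = full assay without inhibitor and 100% = GST in place of GST-Vif; retest series ran down from 100 µM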
# AF4-AF9 inh – inhibitors of human MLL-AF4/AF9 interaction; AID 651704; actives 0.47% (n = 350,000); AlphaScreen, biotin-AF4 peptide binding to FLAG-AF9; inhibition, % at 10 µM;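 active means every replicate reaching a set inhibition limit, whatever the replicate mean, cut at about 25% in these data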;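 further: 0% = plate neutral control median and 100% = total signal loss; the record names both 10 and 1 µM as test concentration; the first replicate is given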
# UCH37 inh – blocks the human deubiquitinase UCH37. Q9Y5K5. purified proteasome/UCH37, Ub-AMC cleavage fluorescence. inhibition, % (test concentration not listed). actives 0.33% (n = 330,000). AID 588478;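 active means mean of two replicates above 20%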;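 further: 0% = compound-free wells with enzyme and 100% = wells lacking proteasome; stock transfer was 100 nL into about 20 µL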
# Target sequence (Q9Y5K5 whole entry, looked up): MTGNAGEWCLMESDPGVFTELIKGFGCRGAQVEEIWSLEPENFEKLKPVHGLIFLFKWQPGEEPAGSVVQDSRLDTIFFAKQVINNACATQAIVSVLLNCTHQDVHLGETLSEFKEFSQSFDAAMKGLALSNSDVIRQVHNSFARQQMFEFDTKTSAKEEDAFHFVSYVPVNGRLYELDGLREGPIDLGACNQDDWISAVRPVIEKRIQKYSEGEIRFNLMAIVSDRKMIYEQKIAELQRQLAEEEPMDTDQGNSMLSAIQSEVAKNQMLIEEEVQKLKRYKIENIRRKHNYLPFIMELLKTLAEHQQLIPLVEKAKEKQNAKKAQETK
#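 Assay system: Proteasome-bound UCH37. Buffer or medium: pH 7.4 Tris-HCl (50 mM) with ovalbumin, ATP-MgCl2, DTT. Incubation: 30 min preincubation with enzyme, 25 min cleavage at room temperature. Measured by: fluorescence, ex 355 nm, em 460 nm. Read-out basis: percent inhibition. Control set: wells without proteasome as full block, compound-free enzyme plus substrate as uninhibited.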
# E coli growth – E. coli growth inhibition; AID 1053175; actives 0.21% (n = 330,000); Escherichia coli growth, OD600, 23 h; hits give low values; OD600 absorbance (test concentration not listed);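 active means OD600 absorbance below the run mean of sample wells minus 3.6 SD, in any replicate, cut at about 0.56 in these data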;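 further: stock transfer was 300 nL into about 60 µL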
# The depositor's hits bear a star; i = inactive; / = not tested or not shown.
# Screens by letter – A = FGF22 binding; B = HNF4A DNA FP; C = Vif TR-FRET; D = AF4-AF9 inh; E = UCH37 inh; F = E coli growth
> CCC(=O)N1[C@@H]2Cn3c(ccc(C4=CCCC4)c3=O)[C@H]1[C@@H](C(=O)OC)[C@@H]2CO
  A: i | B: / | C: / | D: 4.5 | E: / | F: /

> O=C(O)[C@H]1[C@H](CO)[C@H]2Cn3c(ccc(-c4ccccc4)c3=O)[C@@H]1N2CC1CCCCC1
  A: i | B: / | C: / | D: -1.5 | E: / | F: /

> COc1ccc(C#Cc2ccc([C@@H]3[C@@H](CO)N4CCCCN(C(=O)Cc5ccccc5)C[C@@H]34)cc2)cc1
  A: i | B: / | C: / | D: -5.0 | E: / | F: /

> CC(C)CC(=NO)c1cn(C)c2ccccc12
  A: / | B: / | C: / | D: / | E: 3.9 | F: 0.65

> COc1cc(C=NNC(=O)CN2CC(c3ccccc3)CC2=O)ccc1OC(=O)N(C)C (centres undefined)
  A: / | B: / | C: / | D: / | E: 3.6 | F: 0.71

> NC(=N[N+](=O)[O-])N1CCN(C(=O)c2ccc(Cl)cc2)CC1
  A: / | B: / | C: / | D: / | E: 1.9 | F: 0.67

> CCN(CC)c1ccc(C=Nc2sc3c(c2C#N)C2CCN3CC2)c(O)c1
  A: / | B: / | C: / | D: / | E: 8.3 | F: 0.75

> CN(CCCCC(=O)C=NO)Cc1ccccc1 (tested in a mixture with another compound)
  A: / | B: / | C: / | D: / | E: -1.3 | F: 0.72

> C#C[C@@]1(O)CCC2C3CCC4=CC(=NOCC(=O)NC(CCC(N)=O)C(=O)O)CC[C@]4(C)C3CC[C@@]21C (some centres undefined)
  A: / | B: / | C: / | D: / | E: -0.2 | F: 0.68

> Cc1nc2ccccc2c(=O)n1N=Cc1cc(Br)cc(Br)c1O
  A: / | B: / | C: / | D: / | E: -0.5 | F: 0.61

# Reprinted from the part before: 2 entries, then new ones.
# Screens by letter – A = FGF22 binding; B = HNF4A DNA FP; C = Vif TR-FRET; D = AF4-AF9 inh; E = UCH37 inh; F = E coli growth
> C#C[C@@]1(O)CCC2C3CCC4=CC(=NOCC(=O)NC(CCC(N)=O)C(=O)O)CC[C@]4(C)C3CC[C@@]21C (some centres undefined)
  A: / | B: / | C: / | D: / | E: -0.2 | F: 0.68

> Cc1nc2ccccc2c(=O)n1N=Cc1cc(Br)cc(Br)c1O
  A: / | B: / | C: / | D: / | E: -0.5 | F: 0.61

> CC(=O)O[C@@H]1C=C[C@](C)(O)C[C@@H](C)CC=C[C@H]2[C@H](O)C(C)=C(C)[C@H]3[C@H](Cc4ccccc4)NC(=O)[C@@]123
  A: / | B: / | C: / | D: / | E: 3.2 | F: 0.72

> COc1cc(C=NNC(=O)Cn2c([N+](=O)[O-])cnc2C)ccc1OC(=O)N(C)C
  A: / | B: / | C: / | D: / | E: 2.9 | F: 0.66

> CCCC12CN3CCN(CC(C3)C1=NNC(=O)c1ccncc1)C2
  A: / | B: / | C: / | D: / | E: 1.1 | F: 0.69

> CNC(=S)NN=C1C2CN3CCN(C2)CC1(c1ccccc1)C3
  A: / | B: / | C: / | D: / | E: 2.9 | F: 0.7

> COc1cc(O)cc2c1C(=O)OC(C)CCCC(=O)CCCC=C2 (centres undefined)
  A: / | B: / | C: / | D: / | E: 5.4 | F: 0.64

> Cc1ccc2c(c1)C1CN(C)CCC1N2C(=O)Cn1cnc2c1c(=O)n(C)c(=O)n2C (centres undefined)
  A: / | B: / | C: / | D: / | E: -0.9 | F: 0.69

> Oc1ccc(C=NNP(=S)(c2ccccc2)c2ccccc2)c(O)c1O
  A: / | B: / | C: / | D: / | E: -0.3 | F: 0.71

> O=[N+]([O-])C=C1NCCN1Cc1ccc(Cl)nc1
  A: / | B: / | C: / | D: / | E: 4.7 | F: 0.65

> CC(=NO)c1ccc2ccc3ccccc3c2c1
  A: / | B: / | C: / | D: / | E: 3.3 | F: 0.59

> CC[C@H](C)C=C(C)/C=C/C1=CC2=C(Cl)C(=O)[C@@](C)(OC(C)=O)C(=O)C2=CO1
  A: / | B: / | C: / | D: / | E: 20 | F: 0.62

> O=[N+]([O-])c1ccc(N2CCCC2)cc1NN=C1CN2CCC1CC2
  A: / | B: / | C: / | D: / | E: 22* | F: 0.73

> CC1CCCC(C)N1N=Cc1c[nH]c2ccc(Br)cc12 (centres undefined)
  A: / | B: / | C: / | D: / | E: 6.2 | F: 0.63

> NCC1(CC(=O)O)CCCCC1
  A: / | B: / | C: 0% | D: / | E: -0.6 | F: /

> CC(=O)CCC(C)=O
  A: i | B: 1.7 | C: / | D: / | E: / | F: /

> Cc1ccc2c(C)cccc2c1
  A: i | B: -2.2 | C: / | D: / | E: / | F: /

> O=[N+]([O-])c1ccc(Cl)c(Cl)c1Cl
  A: i | B: 3.2 | C: / | D: / | E: / | F: /

> O=C1NC(=O)N(c2ccccc2)C(=O)/C1=C/c1ccoc1
  A: / | B: 9.8 | C: / | D: -2.2 | E: / | F: /

> O=c1[nH]c2ccccc2n1C1CCN(C(CCc2ccccc2)c2nnnn2C2CCCC2)CC1 (centres undefined)
  A: / | B: 1.5 | C: / | D: 5.8 | E: / | F: /

# Among those listed so far, these contain nitrogen in an aromatic ring:
# Screens by letter – A = FGF22 binding; B = HNF4A DNA FP; C = Vif TR-FRET; D = AF4-AF9 inh; E = UCH37 inh; F = E coli growth
> CCC(=O)N1[C@@H]2Cn3c(ccc(C4=CCCC4)c3=O)[C@H]1[C@@H](C(=O)OC)[C@@H]2CO
  A: i | B: / | C: / | D: 4.5 | E: / | F: /

> O=C(O)[C@H]1[C@H](CO)[C@H]2Cn3c(ccc(-c4ccccc4)c3=O)[C@@H]1N2CC1CCCCC1
  A: i | B: / | C: / | D: -1.5 | E: / | F: /

> CC(C)CC(=NO)c1cn(C)c2ccccc12
  A: / | B: / | C: / | D: / | E: 3.9 | F: 0.65

> Cc1nc2ccccc2c(=O)n1N=Cc1cc(Br)cc(Br)c1O
  A: / | B: / | C: / | D: / | E: -0.5 | F: 0.61

> COc1cc(C=NNC(=O)Cn2c([N+](=O)[O-])cnc2C)ccc1OC(=O)N(C)C
  A: / | B: / | C: / | D: / | E: 2.9 | F: 0.66

> CCCC12CN3CCN(CC(C3)C1=NNC(=O)c1ccncc1)C2
  A: / | B: / | C: / | D: / | E: 1.1 | F: 0.69

> Cc1ccc2c(c1)C1CN(C)CCC1N2C(=O)Cn1cnc2c1c(=O)n(C)c(=O)n2C (centres undefined)
  A: / | B: / | C: / | D: / | E: -0.9 | F: 0.69

> O=[N+]([O-])C=C1NCCN1Cc1ccc(Cl)nc1
  A: / | B: / | C: / | D: / | E: 4.7 | F: 0.65

> CC1CCCC(C)N1N=Cc1c[nH]c2ccc(Br)cc12 (centres undefined)
  A: / | B: / | C: / | D: / | E: 6.2 | F: 0.63

> O=c1[nH]c2ccccc2n1C1CCN(C(CCc2ccccc2)c2nnnn2C2CCCC2)CC1 (centres undefined)
  A: / | B: 1.5 | C: / | D: 5.8 | E: / | F: /

# Screens (PubChem)

# These rows are one share of the data (hit frequency here may not be typical).
